# Calb FLC: C. albicans growth modulation with fluconazole. C. albicans CaCi-2 (fluconazole-resistant clinical isolate) + fluconazole, Alamar Blue growth, 48 h. growth inhibition, % (test concentration not listed). actives 0.57% (n = 300,000). AID 1979;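 active = most replicates above 75%; inconclusive = exactly half above 75%; inactive = most below 75%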;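 note: all wells also contain fluconazole at 8 µg/ml as a sub-toxic cotreatment; 0% = median of DMSO wells and 100% = median of geldanamycin control wells; wells of about 8 µL received 7.5 nL stock; the first replicate is given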
# Bfl-1 A1 inh: inhibitors of the anti-apoptotic protein A1, read as caspase activation; MEF A1-2A-BIM cells, Caspase-Glo 3/7 luminescence, 3 h; percent of clofoctol response, vehicle zero; caspase activation, % (test concentration not listed); actives 0.066% (n = 330,000); AID 2462;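 active = over half of replicate activation scores above 10%, or exactly half above 10 with the replicate mean above 10; inconclusive = replicate mean below 10 yet half the replicates above 10; inactive = over half of replicates below 10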;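 note: wells of about 30 µL received 50 nL stock; many hits fall short of the cut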
# Beta cell apopt: beta cell apoptosis inhibition. INS-1E cytokine-induced death, ATP luminescence, 48 h; percent of positive-control rescue, neutral wells zero. protection from apoptosis, % (test concentration not listed). actives 0.8% (n = 300,000);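 active = all replicates at 75% or more, or half of them and the mean; inconclusive = half reach 75% but not the mean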;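 note: 0% = cytokine-treated negative control wells and 100% = positive control rescue; higher means more ATP so stronger rescue from cytokine killing; wells of about 40 µL received 100 nL stock; the first replicate is given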
# ALR H2O2 inh: blocks human ALR sulfhydryl oxidase activity; P55789; purified ALR, DTT oxidation, H2O2 HRP-luminol luminescence; inhibition, % (concentration not given with the values); actives 3.8% (n = 290,000); AID 485317;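 active = mean and each replicate at 75% or more; inconclusive = only one of the two met; inactive = neither met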;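 note: stock transfer was 7.5 nL into about 7.5 µL; 0% = neutral wells and 100% = wells with inactivated enzyme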
# Target sequence (P55789 whole entry, looked up): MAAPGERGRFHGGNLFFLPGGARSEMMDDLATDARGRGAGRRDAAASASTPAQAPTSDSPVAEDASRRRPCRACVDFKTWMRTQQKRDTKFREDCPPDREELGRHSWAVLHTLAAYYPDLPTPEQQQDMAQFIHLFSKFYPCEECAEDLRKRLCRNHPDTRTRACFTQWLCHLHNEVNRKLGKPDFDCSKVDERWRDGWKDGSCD
# B2AR ag: activates human beta-2 adrenergic receptor causing internalization; Am2.2-beta2AR cells, FAP receptor internalization, flow cytometry; reference of the scale not given here; response, % (no concentration beside the values); actives 0.43% (n = 340,000);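 active = response above a set limit, near 3 SD of response in nonfluorescent compounds, cut at about 42% in these data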;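 note: stock transfer was 100 nL into about 11 µL; a reference agonist was the positive control; negative values mostly stem from fluorescent compounds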
# Target sequence (P07550 whole entry, looked up): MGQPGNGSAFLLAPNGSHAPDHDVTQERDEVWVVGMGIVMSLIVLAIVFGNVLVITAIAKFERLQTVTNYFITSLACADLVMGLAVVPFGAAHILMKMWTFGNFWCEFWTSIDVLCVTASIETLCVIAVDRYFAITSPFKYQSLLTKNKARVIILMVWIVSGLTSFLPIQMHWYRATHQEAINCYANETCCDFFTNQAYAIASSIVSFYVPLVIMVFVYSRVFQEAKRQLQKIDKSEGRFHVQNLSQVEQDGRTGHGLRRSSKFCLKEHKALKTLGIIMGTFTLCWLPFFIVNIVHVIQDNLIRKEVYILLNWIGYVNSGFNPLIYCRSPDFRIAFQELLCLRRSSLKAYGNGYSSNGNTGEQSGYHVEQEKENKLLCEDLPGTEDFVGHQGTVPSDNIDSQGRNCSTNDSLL
# LANA-H2B inh: blocks KSHV LANA binding to histone H2A/H2B. inhibition, % (concentration not given with the values). cell-free LANA-H2A/H2B peptide, fluorescence polarization. actives 0.6% (n = 320,000); in the data active = inhibition mostly above about 10%, no sharp cut-off; inactive = mostly below about 6.7%;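 note: stock transfer was 7.5 nL into about 10 µL; 0% = median of vehicle wells and 100% = median of positive control wells; one replicate is shown; the record names a cut of 25% in any replicate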
# T cruzi inh: blocks replication of Trypanosoma cruzi | T. cruzi beta-gal in NIH3T3, luminescence, 90 h | inhibition, % (no concentration beside the values) | actives 1.4% (n = 300,000) | AID 1885;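 active = mean inhibition across valid replicates above about 55%, limit read from the data; inconclusive = mean below that limit but half or more replicates reach it; inactive = mean below it, under half of replicates reach it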;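 note: signal also drops with host cell toxicity which is not excluded here; 0% = plate median of DMSO wells and 100% = zero luminescence signal; higher percent means less beta-gal luminescence so fewer parasites; stock transfer was 50 nL into about 50 µL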
# rRNA inh HTS: inhibits bacterial ribosomal RNA function over humanized ribosomes; E. coli WT GFP vs humanized-ribosome RFP mutants, fluorescence, 24 h; stronger effect = lower value; DMSO median 0, no signal -100; GFP signal change (wild-type ribosome), % (concentration not given with the values); actives 1.6% (n = 350,000);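 active = significant combined selectivity score with lowered wild-type GFP, culture density cut under 30%, mutant RFP and density less affected; inactive = any of these conditions unmet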; note: one replicate is shown; some compounds called inactive have numbers as strong as hits
# rRNA inh HTS OD600: also measured in rRNA inh HTS; calls as there; OD600 change, %; measured here: OD600 growth;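 optical density of the mix in the first replicate; 0 = DMSO median and -100 = no signal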
# rRNA inh HTS RFP: recorded beside rRNA inh HTS, whose call it bears; RFP signal change, %; measured here: RFP humanized mutant strains;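 first replicate; 0 = DMSO median and -100 = no signal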
# * = called active by the depositor; ? = inconclusive; / = no result given. Only part of the results is shown; rates above refer to the full screens.
SMILES,Calb FLC,Bfl-1 A1 inh,Beta cell apopt,ALR H2O2 inh,B2AR ag,LANA-H2B inh,T cruzi inh,rRNA inh HTS,rRNA inh HTS OD600,rRNA inh HTS RFP
O=C(NCc1n[nH]c(=S)n1Cc1ccccc1)c1ccc(Cl)cc1Cl,8,0.4,0,/,-8,2.8,7,-11,-13,0.3
CCN1CCCC1CNC(=O)c1cc2c(OC)c(OC)c(OC)cc2[nH]1 (stereo not drawn),6,0.0,-4,-16,-5,-3.2,34,9,16,0.1
CC1CN(C(=O)Nc2ccc3c(c2)OCCO3)CC(C)O1 (stereo not drawn),5,-1.5,-3,/,1,0.9,-12,7,9,1.2
CC1(C)C(C=C(Cl)Cl)C1C(=O)Nc1ccc(S(=O)(=O)Nc2ncccn2)cc1 (stereo not drawn),-12,-0.2,-12,/,0,5.6,-8,-2,-22,-3.7
O=[N+]([O-])C(=C1SCCS1)C(=C(Cl)Cl)N1CCCCC1,-39,0.5,-3,-1,5,1.2,9,-37,-57,-1.8
CN(CCCC1CCCC1)C(=O)CC1C(=O)NCCN1Cc1ccc(F)cc1 (stereo not drawn),-9,1.1,/,-4,-4,3.9,8,-8,-17,3.6
COc1ccccc1CCNC(=O)/C(=C/c1cccnc1)NC(=O)c1ccccc1,4,0.3,0,-3,5,-5.4,6,-2,-4,-1.3
CSc1sc(C#N)c2c1/C(=N\O)CCC2,-11,1.1,-1,-5,-5,-0.1,-3,3,3,-0.7
C=CC[C@@H](CC(=O)N(CCO)Cc1ccccc1)C(=O)N[C@H](COC(=O)[C@@H](CC=C)CC(=O)OC(C)(C)C)C(C)(C)C,/,-0.4,12,3,6,1.1,/,1,-16,6.8
Cc1cc(C)n(C(=O)c2ccc(NC(=O)CC(C)C)cc2)n1,15,-0.2,-11,1,0,2.6,2,/,/,/
CCOc1ccc(NC(=O)C2CC(=O)NC(N3CCc4ccccc43)=N2)cc1 (stereo not drawn),-6,-0.8,/,-2,1,2.7,-3,/,/,/
CN(C)c1ccc(C(=O)N2CCN(c3cc(C(F)(F)F)nc4ccccc34)CC2)cc1,-2,0.5,/,-1,2,2.4,17,0,-2,2.3
CCOc1cc(CN2CCN(C(=O)CC(C)C)CC2)ccc1OC,-9,-0.3,-6,-3,0,-0.9,3,/,/,/
O=c1c2sccc2nc(SCc2cc(=O)n3ccccc3n2)n1-c1ccc(Br)cc1,24,-1.2,-2,-2,-1,4.0,20,-4,-9,4.2
O=C(CSc1nnnn1-c1ccccc1)N1CCNC1=O,1,1.3,-1,0,-1,-2.8,-6,7,6,2.6
COc1ccccc1OCc1ccc(C(=O)N2CCCCC2)o1,20,0.5,0,0,-9,0.4,12,-2,-15,-0.7
CC(Oc1cccc(Cl)c1)C(=O)Nc1ccncc1 (stereo not drawn),6,1.1,1,1,-10,-1.9,-12,-20,-13,-6.8
CCOC(=O)CSC1=N/C(=C/c2ccc(-n3cncn3)cc2)C(=O)N1C(C)=O,13,9.0*,8,98*,5,2.6,-2,18,11,2.5
CC(C)CC(=O)Nc1ccc(C(=O)COc2ccc(-c3nnco3)cc2)cc1,/,0.3,1,-5,-2,-3.4,/,/,/,/
CCCCn1nc(C(=O)N(C)CC(=O)Nc2cccc(F)c2)c2ccccc2c1=O,1,-1.0,-7,/,6,/,-3,1,3,-1.7
Cc1nc(NC(=O)c2ccccc2)sc1-c1csc(NCCc2ccccc2)n1,6,0.5,11,21,8,-1.7,69*,/,/,/
Cc1ccc(CN(CC(=O)NC2CCCC2)C(=O)CSc2nnc(COc3ccccc3)o2)cc1,-20,0.7,-2,-3,-3,-4.5,8,/,/,/
O=C(Nc1ccccc1C(=O)Nc1nncs1)c1ccccc1,9,0.2,24,3,5,-6.8,-1,-13,5,0.4
c1ccc(CCNc2c3c(nc4ncnn24)CCC3)cc1,0,0.4,10,-4,3,-1.7,-15,/,/,/

# For reference, some entries already given:
SMILES,Calb FLC,Bfl-1 A1 inh,Beta cell apopt,ALR H2O2 inh,B2AR ag,LANA-H2B inh,T cruzi inh,rRNA inh HTS,rRNA inh HTS OD600,rRNA inh HTS RFP
O=C(NCc1n[nH]c(=S)n1Cc1ccccc1)c1ccc(Cl)cc1Cl,8,0.4,0,/,-8,2.8,7,-11,-13,0.3
CCN1CCCC1CNC(=O)c1cc2c(OC)c(OC)c(OC)cc2[nH]1 (stereo not drawn),6,0.0,-4,-16,-5,-3.2,34,9,16,0.1
CC1CN(C(=O)Nc2ccc3c(c2)OCCO3)CC(C)O1 (stereo not drawn),5,-1.5,-3,/,1,0.9,-12,7,9,1.2
CC1(C)C(C=C(Cl)Cl)C1C(=O)Nc1ccc(S(=O)(=O)Nc2ncccn2)cc1 (stereo not drawn),-12,-0.2,-12,/,0,5.6,-8,-2,-22,-3.7
O=[N+]([O-])C(=C1SCCS1)C(=C(Cl)Cl)N1CCCCC1,-39,0.5,-3,-1,5,1.2,9,-37,-57,-1.8
CN(CCCC1CCCC1)C(=O)CC1C(=O)NCCN1Cc1ccc(F)cc1 (stereo not drawn),-9,1.1,/,-4,-4,3.9,8,-8,-17,3.6
COc1ccccc1CCNC(=O)/C(=C/c1cccnc1)NC(=O)c1ccccc1,4,0.3,0,-3,5,-5.4,6,-2,-4,-1.3
CSc1sc(C#N)c2c1/C(=N\O)CCC2,-11,1.1,-1,-5,-5,-0.1,-3,3,3,-0.7
C=CC[C@@H](CC(=O)N(CCO)Cc1ccccc1)C(=O)N[C@H](COC(=O)[C@@H](CC=C)CC(=O)OC(C)(C)C)C(C)(C)C,/,-0.4,12,3,6,1.1,/,1,-16,6.8
Cc1cc(C)n(C(=O)c2ccc(NC(=O)CC(C)C)cc2)n1,15,-0.2,-11,1,0,2.6,2,/,/,/
CCOc1ccc(NC(=O)C2CC(=O)NC(N3CCc4ccccc43)=N2)cc1 (stereo not drawn),-6,-0.8,/,-2,1,2.7,-3,/,/,/
CN(C)c1ccc(C(=O)N2CCN(c3cc(C(F)(F)F)nc4ccccc34)CC2)cc1,-2,0.5,/,-1,2,2.4,17,0,-2,2.3
CCOc1cc(CN2CCN(C(=O)CC(C)C)CC2)ccc1OC,-9,-0.3,-6,-3,0,-0.9,3,/,/,/

# Later entries
SMILES,Calb FLC,Bfl-1 A1 inh,Beta cell apopt,ALR H2O2 inh,B2AR ag,LANA-H2B inh,T cruzi inh,rRNA inh HTS,rRNA inh HTS OD600,rRNA inh HTS RFP
O=C(NCCCC(NC(=O)OCc1ccccc1)C(=O)O)OCc1ccccc1 (stereo not drawn),37,-0.3,-2,25,4,6.9,-21,11,14,1.8
O=C(CSc1nc2ccc(Cl)cc2[nH]1)Nc1ccc2[nH]c(=O)[nH]c2c1,/,-3.0,0,98*,7,3.4,-14,-2,1,-1.9
CC(C)C[C@H](NC(=O)c1nc[nH]c1C(=O)NC(c1ccccc1)c1ccccc1)C(=O)OC(C)(C)C,-6,-1.4,36,0,13,6.1,53,11,5,-2.7
C#CCOCCOCCOCCNc1nc(N2CCN(C(=O)CCCCCCCCCCNC(=O)[C@H](CO)n3cc(CCCSC)nn3)CC2)nc(N2CCN(C(=O)CCCCCCCCCCNC(=O)[C@H](CCCN=C(N)N)n3cc(C[C@@H](C)CC)nn3)CC2)n1,/,-0.2,67,-25,89*,-18,/,/,/,/
Cc1cccc(NC(=O)N[C@@H](C)C(=O)O)c1,7,0.6,1,-8,-11,-1.9,-29,/,/,/
COc1ccc([N+](=O)[O-])cc1/C=N/NC(=O)c1nonc1N,-7,-0.7,-10,/,-7,-8.5,/,17,7,0.6
Cc1ccc2c(c1)N(CC(=O)N1CCOCC1)C(=O)CO2,-2,0.7,-1,2,2,-2.4,-6,4,6,-0.7
CCOC(=O)CN(C(=O)CSc1nnc(CNc2ccc(F)cc2)o1)c1ccccc1,16,-0.5,-2,-5,0,4.3,2,/,/,/
COc1ccc(CCN2C(=O)CC(C(N)=O)SC2=Nc2ccccc2)cc1OC (stereo not drawn),29,0.0,-1,-4,-1,-3.5,5,-11,-11,3.3
Cc1ccc(OC(=O)CCC(=O)NC(C)c2ccccc2)cc1 (stereo not drawn),-1,-0.5,-4,5,13,-5.8,0,/,/,/
Cc1ccc(S(=O)(=O)NC(=O)c2cc(C)n(CCCN3CCOCC3)c2C)cc1,1,-0.1,2,6,-1,1.3,-10,/,/,/
COc1cc(-c2nc(S(=O)(=O)c3ccc(Cl)cc3)c(N(C)C)o2)cc(OC)c1OC,3,0.1,-2,-12,3,3.9,-13,/,/,/
Cc1cccc(C(=O)N2CCCC(N3CCN(c4ccccc4)CC3)C2)n1 (stereo not drawn),0,0.1,1,98*,-1,4.1,-1,8,5,0.7
COc1ccc(C(=O)/C(=C/O)N=Nc2ccc(F)cc2)cc1,-24,-1.3,/,0,21,1.8,4,0,0,1.9
Cc1ccc(C#N)c(SCc2ccccc2[N+](=O)[O-])n1,7,-0.9,-9,-2,-7,-5.2,-9,3,5,-5.4
COc1cccc(/C=N/N(C)C2=NS(=O)(=O)c3ccccc32)c1O,0,1.9,-1,5,-4,5.7,15,-2,8,2.5
CC(C)(C)c1ccc(C(=O)NC(=S)N2CCOCC2)cc1,-4,-3.3,-2,5,13,0.1,-10,3,-9,-4.3
CC(C)[C@H](NC(=O)Nc1cccc(Br)c1)C(=O)O,-2,-0.9,-6,-19,4,-2.6,-6,16,11,4.1
COc1ccc(C(=O)NN2CCCCC2)cc1OC,-13,-0.2,-7,16,-6,4.0,-20,/,/,/
COc1ccc(N2CCN(C(=O)CCCn3c(=S)[nH]c4cc5c(cc4c3=O)OCO5)CC2)cc1,?,0.1,-15,16,-1,-2.3,19,/,/,/
O=C(Nc1ccccc1N1CCOCC1)c1cccc(S(=O)(=O)Nc2ccccc2F)c1,/,-0.4,1,3,8,-0.1,/,/,/,/
CS(=O)(=O)N(CC(=O)N1CCN(Cc2ccc3c(c2)OCO3)CC1)C1CCCCC1,-6,1.2,-14,-10,-1,-3.5,-6,5,-3,1.6
Cc1cc(NC(=O)CSc2ccc3nnc(-c4ccc(Cl)cc4)n3n2)no1,-11,-0.1,-3,-1,8,4.1,4,/,/,/
COC(=O)c1ccccc1NC(=O)CN1CCc2ccccc2C1,0,-1.8,0,-2,-2,-5.6,-1,-14,-17,-5.6
COc1cccc(NC(=O)C2C3C=CC4(O3)C2C(=O)N(CCCN2CCCCC2)C4C(=O)NC2CCCCC2)c1 (stereo not drawn),-1,1.2,-8,0,13,-3.3,-5,3,9,-0.2
Cc1nn(-c2cccc(Cl)c2)c2nc(-c3ccco3)cc(C(=O)O)c12,44,-0.3,1,20,12,10,-2,/,/,/
